AID504770: E. coli YBA685 growth inhibition, screen for V. cholerae RctB inhibitors; E. coli YBA685 rctB-dependent plasmid, OD600 growth, 3 h; stronger effect = lower value; z-score (concentration not given with the values); 130,000 tested, 0.27% active;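 active = z-score under -2 on both plates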;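 note: wells of about 30 µL received 100 nL stock; score is relative to mean and SD of the test wells; the first replicate is given; strong numbers were not always called active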
CapD inh: inhibitors of Bacillus anthracis CapD enzyme. z-score (no concentration beside the values). 140,000 tested, 0.23% active. AID 492967. purified CapD enzyme, fluorescence intensity read-out; stronger effect = lower value; some hits fall short of the stated cut;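 active = z-score under -4 in either of two replicates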;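 note: stock transfer was 100 nL into about 40 µL; score is relative to mean and spread of the plate; one replicate is shown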
Numbers without * were called inactive; x = not tested or not shown; & = joins results of further samples.

SMILES	AID504770	CapD inh
CN1C(=O)CC(C(=O)Nc2ccc(F)cc2)SC1=Nc1cccc(C(F)(F)F)c1 (centres undefined)	x	0.095
Cn1cc(CCC(=O)N2CCC(C(N)=O)CC2)c2ccccc21	0.35	0.37
CCCN1CCC(N(C2CC2)S(=O)(=O)c2ccc(NC(=O)c3c(F)cccc3F)cc2)CC1	x	-0.14
COc1ccc(C2Nc3ccc4ncccc4c3C3=C2C(=O)CC(C)(C)C3)c(OC)c1 (centres undefined)	x	-0.065
CC(C)CNCC1OCCCCO1	-0.25	1.1
CC1=Nc2cc(C(=O)NC3CCCC3)ccc2Sc2ccccc21	1.1	0.06
COc1ccc(C2CC(c3ccco3)=Nc3ccccc3S2)cc1OC (centres undefined)	x	-0.32
CCOC(=O)c1cc(-c2ccc(OC)c(S(=O)(=O)N3CCCc4ccccc43)c2)on1	0.9	0.64
COC(=O)C(C)Oc1cc2oc(=O)c3c(c2cc1Cl)CCC3 (centres undefined)	-0.35	5.3
CCOc1cc(C2C(C(=O)OCCSCC)=C(C)NC3=C2C(=O)CC(c2ccccc2)C3)ccc1O (centres undefined)	x	3
CCCN(CC1CC1)C(=S)Nc1ccc(OCC)cc1	0.25	-0.12
NNC(=O)c1sc(-c2ccccc2)cc1N	0.35	x
O=C(CSC1=NCCS1)c1ccc2c(c1)OCCO2	-1.2	0.06
CCCCOC(=O)Nc1ccc(C(N)=O)cc1	-0.15	0.085
Cc1ccccc1NC(=O)COc1ccc(N2CC(C(N)=O)CC2=O)cc1 (centres undefined)	-0.6	-0.57
CSc1ccc(-c2cccc(F)c2F)cc1	-0.1	0.16
CCOC(=O)c1ccc(NC(=O)CN2C(=O)c3ccccc3C2=O)cc1	-0.05	-0.26
CCOC(=O)N1CCN(C(=O)CCc2nc3sc4c(c3c(=O)[nH]2)CCCC4)CC1	-0.45	0.54
Cc1ccc(S(=O)(=O)C(F)F)cc1S(=O)(=O)C(F)F	0.55	x
COc1cccc2sc(NC(=O)c3ccccc3Cl)nc12	0	0.45
COc1ccc(CNC(=O)OCCCCc2ccc([N+](=O)[O-])cc2)c(OC)c1	x	0.63
Cc1ccc(S(=O)(=O)/C(C#N)=C/c2ccccc2)cc1	-0.15	-0.73
O=[N+]([O-])c1cc(-c2ccc(/C=N/c3c(-c4ccco4)nc4ccccn34)o2)ccc1Cl	x	-0.035
Nc1ccn(C2CC(O)C(COC(c3ccccc3)(c3ccccc3)c3ccccc3)O2)c(=O)n1 (centres undefined)	x	0.15
COc1ccc(C2Nc3ccccc3C(=O)N2Cc2ccccc2)cc1COc1ccccn1 (centres undefined)	x	57

Two entries from above, field by field:
CCOc1cc(C2C(C(=O)OCCSCC)=C(C)NC3=C2C(=O)CC(c2ccccc2)C3)ccc1O (centres undefined)
  AID504770: x; CapD inh: 3
CCCN(CC1CC1)C(=S)Nc1ccc(OCC)cc1
  AID504770: 0.25; CapD inh: -0.12

Further structures:
SMILES	AID504770	CapD inh
Fc1ccccc1C1Nc2cccc3cccc(c23)N1	x	6.9
COc1nc(Nc2ccccc2Cl)nc(OC)n1	x	-0.52
O=C(CSc1nc2ccccc2o1)Nc1ccccc1Cl	x	-0.46
C=C1N(C2CCCCC2)C(=O)OC12CCCCC2	x	-0.29
Cc1cc(=O)n(-c2ccc(O)cc2)[nH]1	-0.75	-0.95
N#Cc1cc2c(=O)n3ccccc3nc2n(-c2cccc(C(F)(F)F)c2)c1=O	1	0.31
CCOC(=O)c1c(NC(=O)C(C)Sc2nnc(CNC(=O)c3ccc(C)c(C)c3)n2C)sc2c1CCC2 (centres undefined)	x	0.39
Cc1nc2nc(C)c(CCC(=O)NCCC3=CCCCC3)c(C)n2n1	-0.45	0.15
CCc1ccc2c(CNC(CC)CC)cc(=O)oc2c1	-1.8	x
O=C(O)c1cc(N2C(=O)/C(=C/c3ccc(-c4ccc([N+](=O)[O-])cc4)o3)C=C2c2ccccc2)ccc1O	x	-1.1
CNC(=O)c1ccccc1NS(=O)(=O)c1ccc(Br)cc1	-0.9	0.55
CS(=O)(=O)c1ccc(-n2cc(-c3ccc(C(=O)NCCc4ccccc4)cn3)cn2)cc1	x	5.5
Cc1ccc(S(=O)(=O)N2CCN(CC(=O)N=Nc3c(O)[nH]c4c(C)c(C)ccc34)CC2)cc1	-0.35	x
O=C(O)c1cc(Cl)c(Cl)cc1C(=O)O	-0.5	-0.3
Cc1cccc(N/N=C(\C=N\N)C(=O)c2ccc(Br)cc2)c1	x	-1.5
COC(=O)C1=C(C)NC2=C(C(=O)CC(c3ccc(OC)c(OC)c3)C2)C1c1cccc(Cl)c1Cl (centres undefined)	x	9.3
COc1cc(C=C2C(=O)NC(=S)NC2=O)cc(Cl)c1OCCOc1ccc(C)c(C)c1	x	-0.22
COc1cccc(-n2cc(C(=O)N(C)C3CCCCC3)c3ccccc3c2=O)c1	0.35	0.95
COc1ccc(CNC(=O)CCn2c(=O)[nH]c3ccccc3c2=O)cc1	-0.55	24
CCOC(=O)CCN1C(=O)c2ccccc2S1(=O)=O	x	0.38
CCCN(C(=O)CSc1nnc(-c2ccco2)o1)C1=CCCCC1	0.1	x
O=P1(c2ccccc2)C=CC(O)C1 (centres undefined)	-0.1	x
CCn1c(=O)c2cc(C(=O)N(C)c3cc(Cl)ccc3C)sc2c2ccccc21	1	0.29
CCN(C(=O)COc1ccc2ccc(=O)oc2c1)C1CCCCC1	-0.8	81
O=C(Nc1nn2cnnc2s1)c1ccncc1	0.4	x
Other entries
SMILES	AID504770	CapD inh
CCOC(=O)COc1ccc2c3c(c(=O)oc2c1C)CCC3	2.1	7.7
CC(Cc1ccccc1)NC(=O)Cc1ccc(N(C)C)cc1 (centres undefined)	-0.7	0.33
COC(=O)C(C)Oc1ccc2c(C)cc(=O)oc2c1 (centres undefined)	0.7	14
CCc1ccccc1N1CCN(S(=O)(=O)c2cc(F)c(Br)cc2F)CC1	x	0.29
CC(C)/C=N/NC(=O)c1cccc(N2CCCC2=O)c1	-0.8	-0.045
CCOC(=O)c1sc(S(C)(=O)=O)c2c1CC(C)(C)CC2=O	x	0.44
CC1=NN(C(=O)c2ccccc2Br)C(O)(c2ccccc2)C1 (centres undefined)	x	-0.6
O=C(Nc1cccnc1Cl)C1CSC(c2ccncc2)=N1 (centres undefined)	0.35	11
CC1Cc2ccccc2N1C(=O)COC(=O)/C=C/c1ccco1 (centres undefined)	0.45	-0.11
Cc1cc(=O)n2c(n1)sc1ccccc12	1.6	-0.89
CCOC(=O)C1CCCCN1Cc1ccco1 (centres undefined)	1.9	-0.58
CCCc1cc([N+](=O)[O-])c(O)c2c(=O)cc(C(=O)OCC)oc12	x	0.11
CC1(C)CN=C(Nc2nc3ccccc3s2)S1	-0.65	0.33
O=C(CSc1ccc(-c2cccs2)nn1)N1CCc2ccccc21	-0.3	0
COc1cc(C)c(COc2ncnc3ccccc23)cc1OC	1.7	x
CCCCn1c(=O)c(C)c(C)c2ccccc21	x	23
O=c1c(-c2nc3ccccc3[nH]2)coc2ccc(Cl)cc12	1	-0.98
CC(=O)N(CCN(C)C)c1nc2c(F)cccc2s1	-0.9	-0.17
COc1ccc(NCC(=O)/C(C#N)=C(\C)Nc2ccc(OC)cc2)cc1	-0.9	x
Clc1ccc(C(Cn2ccnc2)OCc2csc3c(Cl)cccc23)c(Cl)c1 (centres undefined)	x	2.2
Cc1nc2c(ccc3nc(Nc4nc5cc6c(cc5s4)OCCO6)sc32)s1	-0.85	x
O=S(=O)(c1ccccc1)N1CCC(O)(CSc2ccccc2)CC1	x	0.24
COCCN1Cc2cccc(C(=O)N(CC(=O)NC3CCCCC3)Cc3ccc4c(c3)OCO4)c2C1=O	-0.65	x
CC1CC(C)CN(C(=O)COC(=O)Cc2ccc(Cl)cc2)C1 (centres undefined)	-0.6	0.21
O=S(=O)(c1cccs1)N1CCCC2C=CC=CC21 (centres undefined)	-0.7	x

Another view of some results above.
canonical_smiles | AID504770 | CapD inh
CCOC(=O)COc1ccc2c3c(c(=O)oc2c1C)CCC3 | 2.1 | 7.7
CC(Cc1ccccc1)NC(=O)Cc1ccc(N(C)C)cc1 (centres undefined) | -0.7 | 0.33
COC(=O)C(C)Oc1ccc2c(C)cc(=O)oc2c1 (centres undefined) | 0.7 | 14
CCc1ccccc1N1CCN(S(=O)(=O)c2cc(F)c(Br)cc2F)CC1 | x | 0.29
CC(C)/C=N/NC(=O)c1cccc(N2CCCC2=O)c1 | -0.8 | -0.045
CCOC(=O)c1sc(S(C)(=O)=O)c2c1CC(C)(C)CC2=O | x | 0.44
CC1=NN(C(=O)c2ccccc2Br)C(O)(c2ccccc2)C1 (centres undefined) | x | -0.6
O=C(Nc1cccnc1Cl)C1CSC(c2ccncc2)=N1 (centres undefined) | 0.35 | 11
CC1Cc2ccccc2N1C(=O)COC(=O)/C=C/c1ccco1 (centres undefined) | 0.45 | -0.11
Cc1cc(=O)n2c(n1)sc1ccccc12 | 1.6 | -0.89
CCOC(=O)C1CCCCN1Cc1ccco1 (centres undefined) | 1.9 | -0.58
CCCc1cc([N+](=O)[O-])c(O)c2c(=O)cc(C(=O)OCC)oc12 | x | 0.11
CC1(C)CN=C(Nc2nc3ccccc3s2)S1 | -0.65 | 0.33
O=C(CSc1ccc(-c2cccs2)nn1)N1CCc2ccccc21 | -0.3 | 0
COc1cc(C)c(COc2ncnc3ccccc23)cc1OC | 1.7 | x
CCCCn1c(=O)c(C)c(C)c2ccccc21 | x | 23
O=c1c(-c2nc3ccccc3[nH]2)coc2ccc(Cl)cc12 | 1 | -0.98

(listing goes on)
SMILES	AID504770	CapD inh
COc1cc(-c2nnc(SCC(=O)c3ccc(CC(=O)N4CCOCC4)s3)o2)cc(OC)c1OC	-0.1	x
CC(C)(C)c1cc(NC(=O)C2COc3ccccc3O2)n[nH]1 (centres undefined)	0.25	0.01
O=c1cc(-c2ccccc2)nc2cc(-c3cccs3)[nH]n12	0.05	11
CCN(Cc1ccccc1)S(=O)(=O)c1ccc2c(c1)oc(=O)n2C	-0.35	11
Cc1cc(C(=O)c2cc3cc(Cl)ccc3o2)ccc1Cl	0	-1.5
O=C(NCC1CCCO1)c1cn(-c2ccccc2)nc1-c1ccc(Cl)cc1 (centres undefined)	-1.6	0.25
NC1CCN(Cc2cccc(F)c2)CC1	-0.95	x
O=S(=O)(c1cccs1)N1CCN(S(=O)(=O)c2cccs2)CC1	-0.55	0.22
Oc1ccc(/C=N\n2cnnc2)cc1	0.55	0.015
CCNC(=O)N1CCC(N(C2CC2)S(=O)(=O)c2cccc(C(F)(F)F)c2)CC1	x	-0.56
CCN1C(=O)CC(C(=O)Nc2cccc(Cl)c2)SC1=Nc1ccc(C(=O)OC)cc1 (centres undefined)	x	-0.025
COc1ccc(CNC(=O)C2CSC(=O)C2)cc1 (centres undefined)	1.1	31
CC1(C)C(=O)Nc2ccccc2N1C(=O)COC(=O)c1ccc(S(=O)(=O)C(F)F)cc1	-0.35	x
Cc1c(C(=O)N2CCC(C(N)=O)(N3CCCCC3)CC2)sc2ncnc(N3CCN(c4ccccn4)CC3)c12	x	0.21
CCCCCn1c(C)c2c(OCC)cccc(=O)c2c1C	-0.25	-0.2
COc1cccc(C(=O)N/N=C/c2cccc(F)c2)c1	x	-1.1
NNC(=O)C1=CC(C(=O)c2cccs2)=NN(c2ccccc2)C1C(=O)NN (centres undefined)	1.2	-2
CCOC(=O)c1cc2c(=O)n3ccccc3nc2n(Cc2ccco2)c1=NC(=O)c1ccccc1	1.5	16
CCc1cc(-c2oncc2-c2ccc(Br)cc2)c(O)cc1OC	0	x
CCCCCc1c2c(C)c(C(=O)OCC)nc-2cc2n1CC(C)=C2C	x	49
COc1ccc(NC(=O)c2cc(-c3ccccc3)nc3ccccc23)cc1	x	0.03
COc1ccc(F)c(/C=N/NC(=O)COc2ncn(-c3ccccc3)n2)c1	x	7
Cc1nnc(SCC(=O)Nc2ccc3c(c2)OCO3)s1	x	0.51
CCN(CC)CCSc1nc2ccc(OC)cc2[nH]1	-0.15	x
Nc1nc2c(s1)c(=O)[nH]c(=O)n2-c1ccc(Cl)cc1	-1.6	0.065
New compounds follow:
SMILES	AID504770	CapD inh
CN1CCN(C(=O)c2ccc(-c3cccs3)s2)CC1	-0.5	66
O=C(NCc1ccc(C(=O)Nc2ccc(Cl)cc2)cc1)OCc1ccccc1	x	-0.98
Cc1cc(C(=O)N(C)C2CCCCC2)on1	0.15	0.23
Cc1ccc(CC(C#N)Sc2nccn2C)cc1 (centres undefined)	0.35	x
CCOc1ccc(OCC)c(S(=O)(=O)NCc2ccccn2)c1	0.8	0.17
CCC1CSC(Nc2ccc(OC)cc2)=N1 (centres undefined)	-1&-0.7	-0.53
COc1ccc(/C=C/C(=O)Nc2cccnc2)cc1OC	1.1	3
CCn1nnc(NC(=O)COc2ccccc2)n1	-0.3	x
COc1cccc(NC(=O)Nc2cn(C)c(=O)c3ccccc23)c1	0.1	48
COc1ccc(OCCSc2nc(C)nc3ccccc23)cc1	-0.9	-0.9
CN(CCO)CC(O)Cn1c2ccc(Br)cc2c2cc(Br)ccc21 (centres undefined)	x	-0.52
CCCCn1c(SCC(=O)NC(C)(C)C)nnc1-c1ccncc1	-0.05	x
CNC(=O)CSc1nnc(-c2ccc3c(c2)OCO3)o1	-0.4	x
Cc1ccc(COc2ccc(C3C4=C(CC(C)(C)CC4=O)NC4=C3C(=O)CC(C)(C)C4)cc2)cc1	x	16
CCOC(=O)CSc1nc(SCC(=O)OCC)c2c3c([nH]c2n1)CCCC3	-0.7	-0.16
Cc1ccc(S(=O)(=O)N2CCCC2C(=O)NCCc2nc3ccccc3[nH]2)cc1 (centres undefined)	-0.6	0.48
COc1ccccc1N=Cc1cc(Br)cc(Br)c1O	x	-0.46
CCOc1ccc(Nc2cc(N(C)C)c3nonc3c2[N+](=O)[O-])cc1	x	0.28
N#CCS(=O)(=O)Cc1cccs1	x	0.055
CN(C)S(=O)(=O)c1ccc(C(=O)N2CCc3ccccc3C2)cc1	-0.15	0.8
NC(N)=NC(N)=Nc1ccc2c(c1)OCCO2	x	0.39
O=C(C(Sc1ccccc1)c1ccc(Br)cc1)N1CCOCC1 (centres undefined)	-0.8	-0.18
CC(=O)OC(OC(C)=O)C12C=CC(O1)C1C(=O)N(c3ccccc3-c3ccccc3)C(=O)C12 (centres undefined)	-0.1	0.1

Source: PubChem BioAssay (ICCB-Longwood Screening Facility, Harvard Medical School)
